RVFV N-RNA inh – RVFV nucleocapsid-RNA interaction inhibition; P21700; RVFV N-RNA binding, fluorescence polarization; active compounds read low; % bound, % (no concentration beside the values); 20,000 tested, 0.1% active;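 active = between 0 and 58% in either replicate with normal brightness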;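 also: 100 nL library stock added to about 12 µL; 100% = protein and probe without compound and 0% = probe alone; numbers are from one replicate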
Target sequence (P21700 whole entry, looked up): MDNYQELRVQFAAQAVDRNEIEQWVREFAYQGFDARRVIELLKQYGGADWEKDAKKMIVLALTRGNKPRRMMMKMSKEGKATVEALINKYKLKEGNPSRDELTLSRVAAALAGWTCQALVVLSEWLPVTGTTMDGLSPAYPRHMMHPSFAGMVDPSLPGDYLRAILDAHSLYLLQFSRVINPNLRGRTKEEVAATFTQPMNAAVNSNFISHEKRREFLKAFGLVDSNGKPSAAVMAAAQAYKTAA
* marks the source's active call; other numbers are inactive results; & = joins results of further samples. This is a subset (hit frequency here may not be typical).

molecule	RVFV N-RNA inh
Cc1cc(N(Cc2ccc(Cl)cc2)C(=O)c2ccc(Cl)cc2)no1	101
Cc1ccc2c(c1)CCCN2C(=O)c1ccoc1C	98
Cc1cc(/C=C(/C#N)c2ccc(Cl)cc2)c(C)n1C(C)C	87
COc1ccc(CNC(=O)c2c(O)nc3scc(C)n3c2=O)cc1	95
O=C(NCc1csc(-c2cccs2)n1)Nc1ccc(F)cc1F	98
Cc1cc(C)c(Nc2n[nH]c(=O)[nH]2)cc1C	95
COc1ccc(C=Nc2cccc(C(N)=O)c2)cc1OC	89
O=C(N/N=C/C1CC=CCC1)c1ccccc1 (stereo unspecified)	82
Cc1nc2c(=O)n(C)c3c(c(=O)n(C)c(=O)n3C)c2o1	92
COc1ccc(C2(CNC(=O)c3ccc(NC(=O)c4ccco4)cc3)CCOCC2)cc1	96
CCCc1oc2c(c(=O)c1CC)C(=O)CC(C)(C)C2	90
Cc1ccc(C(=O)NC(=S)Nc2ccc(-c3ccc(CO)o3)cc2)cc1	92

New compounds follow
molecule	RVFV N-RNA inh
O=S(=O)(c1cccc2ccccc12)N1CCCCC1	82
O=c1[nH]c2cc(Cl)c(Cl)cc2n1-c1ccncc1	94
Cc1oc(S(=O)(=O)N2CCCCC2)cc1C(=O)Nc1ccccc1	98
CCOC(=O)Cc1nnc(-c2ccc(Cl)cc2)o1	96
O=C(NCc1ccco1)/C(=C/c1cn(-c2ccccc2)nc1-c1cccs1)NC(=O)c1ccccc1	91
Cc1cccc(COc2coc(CN3CCc4ccccc4C3)cc2=O)c1	87
CC1(C)C[C@@H]1C(=O)N/C(=C\CCCCSC[C@H](N)C(=O)O)C(=O)O	95
O=C(N/N=C/c1ccco1)c1n[nH]c2c1CCC2	88
CC(C)(C)/C=N/NS(=O)(=O)c1ccc(-c2ccccn2)s1	85
O=C(COc1ccccc1)Nc1ccc2c(c1)C(=O)NC2=O	99
CCCCc1nnc(NC(=O)C=C(C)C)s1	85
N#Cc1ccc(C=Nc2cccc(C(N)=O)c2)cc1	91

Carrying on:
molecule	RVFV N-RNA inh
c1ccc(C2CC2)c(OCC2=NCCN2)c1	98&96
Oc1ccc(OCc2ccccc2)cc1	97
CC(=O)Nc1ccc(OCC(O)CNC(C)C)cc1 (stereo unspecified)	96
CNC(=S)Nc1cnn(Cc2cccc3ccccc23)c1	93
COC(=O)NN1C(=O)c2ccccc2C1=O	97
COC(=O)/C(C#N)=C\C=C\c1ccccc1	100
CCCc1c(C(=O)NNc2ccc(C)cc2)cnn1-c1ccccc1	96
C[C@H](C(=O)O)c1cccc(C(=O)c2ccccc2)c1	101
CCNC(=O)NCc1nc(-c2ccccc2)no1	95
O=S(=O)(Nc1ccc2oc3c(c2c1)CCCC3)c1ccc(F)cc1	97
CCOC(=O)C1=C(O)C(=O)N(Cc2ccccc2)C1	99
CCn1cc(CN(C)C(=S)Nc2ccc(OC)c(OC)c2)c(C)n1	98

(listing goes on)
molecule	RVFV N-RNA inh
COc1ccc2c(c1)[nH]c1c(C)nccc12	92
O=S(=O)(c1ccc(Cl)cc1)N1CCCC1c1cccs1 (stereo unspecified)	92
O=C(NCC1CC1)Nc1cccs1	91
CS(=O)(=O)Nc1ccc(/C(N)=N/OC(=O)c2ccc(Cl)cc2)cc1	98
Cc1nnc(Nc2ccc(N3CCCCC3)cc2)[nH]c1=O	89
Cc1cc(C)nc(Nc2n[nH]c(-c3cccnc3)n2)n1	85
CCN(C(=O)c1cccc(OC)c1)C1CCS(=O)(=O)C1 (stereo unspecified)	94
COc1ccc(C(=O)CN2CCN(C(=O)CC(C)C)CC2)cc1	96
CCOC(=O)c1nn(-c2ccc(Cl)cc2Cl)c(=N)c(C#N)c1C	110
N#CCC(=O)NCc1ccncc1	95
CN(C)C(=O)CSc1nnc(-c2cccnc2)n1-c1ccccc1	95
COC(=O)c1c(C)[nH]c(C)c1/C=N/OC(=O)c1ccco1	91

Other results
molecule	RVFV N-RNA inh
CC(=O)NNC(=O)N1Cc2ccccc2Oc2ccc(Cl)cc21	97
Cc1c(Cl)cccc1NC1=CC(=O)CCC1	96
CC(C)(O)C#Cc1ccc(C(=O)NCCC(=O)O)s1	101
Cn1c2ccccc2c2cc(CC(N)=O)ccc21	92
CC(C)c1nn(-c2ccc(C(F)(F)F)cn2)c(=O)o1	97
COc1ccc(N/C=C(\C#N)C(N)=S)cc1	108
O=C(O)C1C(C(=O)O)C1C(=O)O (stereo unspecified)	105
CCCCn1c2ccc(O)cc2c2c3c(c(-c4ccccc4Cl)cc21)C(=O)NC3=O	103
O=C(N/N=C/c1ccncc1)C1CC1C(=O)N/N=C/c1ccncc1 (stereo unspecified)	106
Cc1ccc(/C=N/NC(=O)C(c2ccccc2)c2ccccc2)o1	92
CCN(CC)c1nc(NN)nc(Nc2ccc(C)c(Cl)c2)n1	92
Fc1ccc(CN2CCCCCC2)cc1F	98

Continued.
molecule	RVFV N-RNA inh
CC(=O)Nc1ccc(C2N=C(c3cnccn3)NN2)cc1 (stereo unspecified)	92
S=c1oc(-c2ccccc2)nn1CN1CCCCC1	95
CCOc1ccc(NCCC(=O)c2ccc(NS(C)(=O)=O)cc2)cc1	98
CN(c1ccccc1)S(=O)(=O)c1ccc(I)cc1	100
CCOC(=O)C(CC)SC1=NS(=O)(=O)c2cc(Cl)ccc2N1 (stereo unspecified)	88
O=S(c1ccc2ccccc2c1)N(Cc1ccc(F)cc1)Cc1ccco1 (stereo unspecified)	101
Nc1ncnc2nc(-c3ccc(N4CCOCC4)nc3)cc(-c3cccc(Br)c3)c12	106
CCOc1ccccc1C(=O)N(CN1CCCC1=O)c1ccccc1	97
CC(=O)O[C@H]1C[C@@H]2CC[C@@H]3[C@H](CC[C@@]4(C)[C@H]3C[C@H]([N+]3(C)CCCCC3)[C@@H]4OC(C)=O)[C@@]2(C)C[C@@H]1[N+]1(C)CCCCC1	92&99
COc1ccccc1C1CCN(C(=O)Nc2ccccc2C#N)CC1	107
CC1=NC(=O)/C(=C\c2ccc(Cl)cc2)N(C)N1c1ccccc1	103
CCn1cc(CNC(=S)NC2CCCC2)cn1	95

(further entries)
molecule	RVFV N-RNA inh
COc1ccc(C2OC(=O)C(C)(C)C(=O)C2C)cc1OC (stereo unspecified)	98
OC(CN1CCC(Cc2ccc(F)cc2)CC1)c1ccc(Cl)cc1 (stereo unspecified)	98
S=C(Nc1ccccc1)Nc1nccs1	94
C=C(C)C1CC=C(CN2CCN(c3ccccc3)CC2)CC1 (stereo unspecified)	97
O=C(CCN1CCN(c2nccc(C(F)(F)F)n2)CC1)N1CCCN(c2ccc(C(F)(F)F)cn2)CC1	102
CCn1ncc(CN2CCN(C(=S)Nc3ccc(Br)cc3Cl)CC2)c1C	99
O=C(Nc1ccccc1)O/N=C/c1ccccc1	96
CCn1nnc2c(N3CCc4cc(OC)c(OC)cc4C3C)ncnc21 (stereo unspecified)	91
COc1ccc(CCNC(=O)C(F)(F)F)cc1	102
S=C(NCc1ccco1)N/N=C1\CSCc2ccccc21	91
N#CC(C#N)=Cc1sccc1C1OCCO1	91
Cc1ccccc1OC(C)C(=O)O/N=C(\N)c1cccnc1 (stereo unspecified)	97

By substructure, those above containing an aryl methoxy group.
molecule	RVFV N-RNA inh
COc1ccc(CNC(=O)c2c(O)nc3scc(C)n3c2=O)cc1	95
COc1ccc(C=Nc2cccc(C(N)=O)c2)cc1OC	89
COc1ccc(C2(CNC(=O)c3ccc(NC(=O)c4ccco4)cc3)CCOCC2)cc1	96
CCn1cc(CN(C)C(=S)Nc2ccc(OC)c(OC)c2)c(C)n1	98
COc1ccc2c(c1)[nH]c1c(C)nccc12	92
CCN(C(=O)c1cccc(OC)c1)C1CCS(=O)(=O)C1 (stereo unspecified)	94
COc1ccc(C(=O)CN2CCN(C(=O)CC(C)C)CC2)cc1	96
COc1ccc(N/C=C(\C#N)C(N)=S)cc1	108
COc1ccccc1C1CCN(C(=O)Nc2ccccc2C#N)CC1	107
COc1ccc(C2OC(=O)C(C)(C)C(=O)C2C)cc1OC (stereo unspecified)	98
CCn1nnc2c(N3CCc4cc(OC)c(OC)cc4C3C)ncnc21 (stereo unspecified)	91
COc1ccc(CCNC(=O)C(F)(F)F)cc1	102

Going on with the list:
molecule	RVFV N-RNA inh
CC1=C(C(=O)OC(C)C(C)(C)C)C(c2ccc(O)cc2)NC(=O)N1 (stereo unspecified)	93
CC(C)c1ccc(OC(=O)C2COc3ccccc3O2)cc1 (stereo unspecified)	97
CC(C)COC(=O)OCN1C(=O)CN(CCN2CC(=O)N(COC(=O)OCC(C)C)C(=O)C2)CC1=O	99
O=C1NC(=O)c2cc(NC(=O)C3COc4ccccc4O3)ccc21 (stereo unspecified)	84
O=C(Nc1ccc(C(=O)N2CCOCC2)cc1)Nc1ccc(Cl)cc1Cl	98
CC(C)(CO)NC(=O)COc1ccc(Cl)cc1	98
CC(C)N1CCC(=O)N(c2ccc3c(c2)CCO3)C1=O	95
O=C1CCCC(O)=C1C=Nc1ccc(Br)cc1	93
COc1ccc2occ(C(O)c3ccccc3)c2c1 (stereo unspecified)	100
O=C(O)c1cccc(-n2nnnc2SCc2ccccn2)c1	95
CC(C)C/C=C/C=C\C(=O)N[C@@H](CC(N)=O)C(=O)N[C@@H]1C(=O)N[C@H](c2ccc(O)cc2)C(=O)N[C@H](CCCN)C(=O)N[C@H]([C@H](C)O)C(=O)N[C@@H](c2ccc(O)cc2)C(=O)N[C@H](c2ccc(O)cc2)C(=O)N[C@@H]([C@H](C)O)C(=O)N[C@@H](Cc2ccccc2)C(=O)N[C@H](CCCN)C(=O)N[C@@H](c2ccc(O[C@@H]3O[C@H](CO)[C@H](O)[C@@H](O)[C@@H]3O[C@@H]3O[C@H](CO)[C@@H](O)[C@H](O)[C@H]3O)cc2)C(=O)NC(C(C)O)C(=O)N[C@@H](c2ccc(O)cc2)C(=O)NCC(=O)N[C@@H](CC(C)C)C(=O)N[C@H](C)C(=O)N[C@@H](c2ccc(O)c(Cl)c2)C(=O)O[C@@H]1C(N)=O (stereo partly specified)	106
O=C1NC(=S)N(c2ccccc2)C(=O)/C1=C\c1ccoc1	96

(cont.)
molecule	RVFV N-RNA inh
S=C(NCC(c1cccnc1)N1CCOCC1)NC1CCCCC1 (stereo unspecified)	94
O=C(c1cccs1)c1cnc2ccccn2c1=O	105
O=C(c1ccc2c(c1)OCCO2)N1CCCCC1	96
COc1ccc(CN2CCN(c3ccccn3)CC2)cc1OCc1ccccc1	91
CCOc1ccc(C(=O)c2cccs2)cc1	99
Oc1c(Cl)cc(Cl)cc1CN1CCN(c2cccc(Cl)c2)CC1	98
O=C(c1ccc(NC(=S)NCc2ccco2)cc1)N1CCCCC1	93
c1ccc2c(c1)ncc1cccn12	104
c1ccc(CN2CCN(Cc3ccccc3)C2c2ccccc2)cc1	96
N#C/C(=C\c1ccc(-c2ccccc2)o1)c1ccccc1	109
CCCCOc1cccc2c1CCN(Cc1ccccc1)C2=O	100
CCC(Sc1nnc(COc2ccccc2)n1C)C(=O)Nc1ccccc1 (stereo unspecified)	90

Additional structures follow.
molecule	RVFV N-RNA inh
O=c1[nH]c2ccccc2n1C1CCN(CCCC(c2ccc(F)cc2)c2ccc(F)cc2)CC1	101&99
Cc1occc1-c1nnc(SCc2nn[nH]n2)n1-c1ccccc1	97
COC(=O)[C@@H]1[C@H]2C[C@H]3c4[nH]c5ccccc5c4CCN3C[C@@H]2CC[C@@H]1O	98&100
CCOC(=O)c1ccc(N(C)S(=O)(=O)c2ccc(OC)cc2)cc1	94
CCOc1cccc(C(=O)N2CCOCC2)c1	99
OCCN1CCN(CC/C=C2/c3ccccc3Sc3ccc(C(F)(F)F)cc32)CC1	93
CC(NC(=S)NC1CCCCC1)c1ccncc1 (stereo unspecified)	101
CCCC(=O)Nc1ccc(-c2cn3cccnc3n2)cc1	92
COCC(=O)N1CCN(c2ccc(F)cc2)CC1	93
NC(=S)N1CCC(c2ccccc2)=N1	89
O=C(CCN1C(=O)c2ccccc2C1=O)N1CCCC1	102
COC(=O)COc1ccc2c(C)cc(=O)oc2c1	102

(further entries)
molecule	RVFV N-RNA inh
Cc1nc(N)sc1-c1csc(Nc2ccccc2)n1	98
CN1C(=O)S/C(=C\C(=O)O)C1=O	95
COC(=O)CNS(=O)(=O)c1ccc(F)cc1	86
CC1CN(C(=O)c2ccc(Br)o2)CC(C)O1 (stereo unspecified)	107
CCOC(=O)C1CCN(C(=O)c2nn(-c3ccccc3)nc2C)CC1	91
CC(C)(C)c1ccc(NC(=O)N2CCN(CCN3CCOCC3)CC2)cc1	90
CCOC(=O)c1ccc(NC)c(N)c1	96
CCC1(Cc2ccccc2)NC(=O)c2ccccc2O1 (stereo unspecified)	113
CCC(C)N=Cc1c(O)n(-c2ccccc2)c(=O)[nH]c1=O (stereo unspecified)	86
O=C(NN1C(=O)CCC1=O)C(O)c1ccccc1 (stereo unspecified)	93
COc1ccc(NC(=S)NCCn2cc(Br)cn2)cc1OC	100
CS(=O)(=O)c1ccc(C2=C(c3ccccc3)C(=O)OC2)cc1	93&96

Later entries
molecule	RVFV N-RNA inh
CCN(CC)CCN=Cc1c(O)[nH]c(=O)[nH]c1=O	86
CCNS(=O)(=O)c1cc(C)ccc1-n1cnnn1	98
CS(=O)(=O)N(CCc1ccccc1)CC(=O)NCc1ccccc1	97
COCCOc1cc(COC)nc(-c2cccc(C)c2)n1	94
CCCCNC(=O)C1CCN(C(=O)c2cccc(Cl)c2)CC1	96
O=C(NCc1cccnc1)NC(=O)c1ccccc1	95
COC(=O)c1ccc(/C=N/NC(N)=S)n1-c1ccc(F)cc1	86
CN(C)C(=O)c1cc(Br)ccc1Cl	100
CN1C(=O)CC2(CC(=O)N(Cc3ccccc3)C2)C1=O (stereo unspecified)	93
